UCH37 inh: inhibitors of human deubiquitinating enzyme UCH37; Q9Y5K5; purified proteasome/UCH37, Ub-AMC cleavage fluorescence; inhibition, % (test concentration not listed); 0.33% of 330,000 active; AID 588478;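 active means mean of two replicates above 20%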;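 further: 0% = compound-free wells with enzyme and 100% = wells lacking proteasome; stock transfer was 100 nL into about 20 µL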
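Signal – fluorescence, ex 355 nm, em 460 nm · System – Proteasome-bound UCH37 · Input – 0.15 nM proteasome as dispensed · Timing – 30 min preincubation with enzyme, 25 min cleavage at room temperature · Read-out basis – percent inhibition of cleavage signal versus uninhibited and no-proteasome wells · Medium – Tris-HCl pH 7.4 with ATP-MgCl2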
HNF4A DNA FP: change in binding of human HNF4 alpha to DNA; HNF4a-FITC DNA binding, fluorescence polarization, 1 h; AID 1224865; activity change, % at 10 µM; P41235; 0.3% of 360,000 active; in the data active means activity change above about 30%, passing the limit was not always enough;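 further: controls were the assay level and a saturating level of protein; the project sought stronger binding though the title names inhibitors; some compounds called inactive have numbers as strong as hits; positive values seem to mean higher polarization but the record does not say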
Target sequence (P41235 whole entry, looked up): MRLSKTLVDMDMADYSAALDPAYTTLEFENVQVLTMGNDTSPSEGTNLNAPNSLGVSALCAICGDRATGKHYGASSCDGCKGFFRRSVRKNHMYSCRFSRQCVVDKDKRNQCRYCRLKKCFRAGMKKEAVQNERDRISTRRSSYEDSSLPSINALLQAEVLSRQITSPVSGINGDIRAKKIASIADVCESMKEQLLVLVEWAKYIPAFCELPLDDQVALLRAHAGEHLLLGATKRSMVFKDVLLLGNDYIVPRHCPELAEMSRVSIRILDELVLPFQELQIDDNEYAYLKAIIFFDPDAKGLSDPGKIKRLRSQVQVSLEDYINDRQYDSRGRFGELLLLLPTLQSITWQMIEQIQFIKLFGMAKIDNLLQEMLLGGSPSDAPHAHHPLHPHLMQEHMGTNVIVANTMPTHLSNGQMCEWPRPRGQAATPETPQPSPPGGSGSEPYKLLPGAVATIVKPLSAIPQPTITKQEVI
Ecoli growth: E. coli growth inhibition; Escherichia coli growth, OD600, 23 h; hits give low values; 0.21% of 330,000 active; OD600 absorbance (concentration not given with the values);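 active means OD600 absorbance below the run mean of sample wells minus 3.6 SD, in any replicate, cut at about 0.56 in these data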;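 further: stock transfer was 300 nL into about 60 µL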
FGF22 binding: FGF22 (human) thermal shift binding; recombinant FGF22 thermal shift, SYPRO orange fluorescence; percent of sucrose octasulfate shift, DMSO zero; calls only at 9.99 µM; 1.5% of 340,000 active;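 active means melting point raised past a set limit in the mean and every replicate; three in four hits are not shown here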
Target sequence (Q9HCT0 whole entry, looked up): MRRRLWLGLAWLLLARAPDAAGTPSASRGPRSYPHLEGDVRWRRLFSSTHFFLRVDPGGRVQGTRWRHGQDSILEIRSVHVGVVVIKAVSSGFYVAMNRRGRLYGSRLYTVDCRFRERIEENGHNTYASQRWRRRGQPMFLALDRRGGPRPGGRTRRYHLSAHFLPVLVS
Ecoli rRNA inh: inhibits bacterial ribosomal RNA function over humanized ribosomes; GFP signal change (wild-type ribosome), % (test concentration not listed); E. coli WT GFP vs humanized-ribosome RFP mutants, fluorescence, 24 h; hits give low values; DMSO median 0, no signal -100; 1.6% of 350,000 active;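 active means significant combined selectivity score with lowered wild-type GFP, culture density cut under 30%, mutant RFP and density less affected; inactive means any of these conditions unmet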; further: one replicate is shown; some compounds called inactive have numbers as strong as hits
ALR inh: inhibitors of human sulfhydryl oxidase ALR | P55789 | inhibition, % (test concentration not listed) | purified ALR, DTT oxidation, H2O2 HRP-luminol luminescence | 3.8% of 290,000 active;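 active means mean and each replicate at 75% or more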;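 further: stock transfer was 7.5 nL into about 7.5 µL; 0% = neutral wells and 100% = wells with inactivated enzyme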
B2AR ag: human beta-2 adrenergic receptor agonism by FAP. P07550. Am2.2-beta2AR cells, FAP receptor internalization, flow cytometry; reference of the scale not given here. response, % (concentration not given with the values). 0.43% of 340,000 active;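 active means response above a set limit, near 3 SD of response in nonfluorescent compounds, cut at about 42% in these data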;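 further: stock transfer was 100 nL into about 11 µL; a reference agonist was the positive control; negative values mostly stem from fluorescent compounds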
Target sequence (P07550 whole entry, looked up): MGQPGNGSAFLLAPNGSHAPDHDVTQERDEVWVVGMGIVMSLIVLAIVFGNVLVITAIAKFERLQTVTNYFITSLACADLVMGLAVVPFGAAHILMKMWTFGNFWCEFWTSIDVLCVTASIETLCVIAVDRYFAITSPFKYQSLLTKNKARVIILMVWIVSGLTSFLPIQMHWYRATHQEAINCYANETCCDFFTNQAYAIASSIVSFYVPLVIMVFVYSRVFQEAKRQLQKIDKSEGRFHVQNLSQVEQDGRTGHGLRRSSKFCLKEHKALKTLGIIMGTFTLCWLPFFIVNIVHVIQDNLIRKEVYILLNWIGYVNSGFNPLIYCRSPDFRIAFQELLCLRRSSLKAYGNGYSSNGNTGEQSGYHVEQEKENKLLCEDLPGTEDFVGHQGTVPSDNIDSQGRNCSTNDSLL
Ecoli rRNA inh OD600: second read-out of Ecoli rRNA inh, no call of its own (marks repeat the call); OD600 change, %; measured here: OD600 growth;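 optical density of the mix in the first replicate; 0 = DMSO median and -100 = no signal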
Ecoli rRNA inh RFP: further read-out of Ecoli rRNA inh, marked with its call; RFP signal change, %; measured here: RFP humanized mutant strains;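 first replicate; 0 = DMSO median and -100 = no signal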
Starred values were filed as active, the others as inactive; i = inactive; · = not tested or not shown.

SMILES	UCH37 inh	HNF4A DNA FP	Ecoli growth	FGF22 binding	Ecoli rRNA inh	Ecoli rRNA inh OD600	Ecoli rRNA inh RFP	ALR inh	B2AR ag
Cc1cc(C)c(NC(=O)c2cc(C(=O)O)ccc2C(=O)O)c([N+](=O)[O-])c1	47*	6.3	·	i	8	5	-1.4	·	2
COC(=O)C1CCN(C(=O)CSc2nc3nc(C)cc(C)n3n2)CC1	3.8	1.7	0.64	·	5	14	0.1	·	4
COc1cccc(C2C(C(=O)c3cc4ccccc4o3)=C(O)C(=O)N2CCN(C)C)c1OC (stereo unspecified)	9.1	0.6	0.79	·	·	·	·	-4	-10
COCC(=O)NC1CC2CCC(C1)N2C(=S)Nc1ccccc1C(=O)OC (stereo unspecified)	2.1	2.3	0.68	i	13	9	0.2	-1	-7
COc1ccc(NC2CCCN(C(=O)CN3CCOC3=O)C2)cc1OC (stereo unspecified)	-0.1	-0.1	0.67	i	11	13	2.9	100*	2
CCOC(=O)CC1=CC(=O)Nc2ccccc2N1	0.8	-0.6	0.73	·	·	·	·	-8	-20
COc1ccc(CCNC2CC(=O)N(C)C2=O)cc1OC (stereo unspecified)	-2.1	-0.8	0.66	·	·	·	·	4	4
CCOC(=O)c1ccc(NC(=O)C23CCC(C)(C(=O)O2)C3(C)C)cc1 (stereo unspecified)	-1.0	4.5	0.7	·	·	·	·	-19	4
COc1ccc(C(=O)c2c[nH]c(C(=O)NCCCn3ccnc3)c2)cc1	1.3	-2.9	0.69	i	19	-16	-1.8	-1	-11
CCOc1ccc(NC2=NCC(=O)N2Cc2cccs2)cc1	-1.3	0.5	0.74	·	6	7	-2.2	-10	-7
CC(=O)OCC(=O)NCc1ccc2c(c1)OCO2	3.2	0.1	0.71	·	·	·	·	-12	2
N#Cc1c(SCC(=O)Nc2cccc(C(F)(F)F)c2)sc2c(O)cc(=O)[nH]c12	8.9	-8.8	0.69	·	1	0	1.5	99*	-2
C=CCNc1nc(N)c([N+](=O)[O-])c(NC2CCCCC2)n1	4.7	-3.4	0.72	i	1	8	-0.3	2	6
COc1ccc(N(CC(=O)NC2CCCCC2)C(=O)CCC(=O)Nc2nc(C)cs2)cc1OC	1.3	0.3	0.69	i	4	4	-0.9	6	-3
CC(C)(C)C(=O)N1CCN(c2nc3ccccc3s2)CC1	1.5	0.6	0.74	i	-4	-4	0.5	-1	0
CCN(CC)C(=O)c1ccc(Nc2nnc(C)c3ccccc23)cc1	0.9	3.4	0.66	·	·	·	·	·	-15
CCOC(=O)c1c(C)[nH]c(C)c1C(=O)COC(=O)Cc1ccc(OC)c(OC)c1	1.8	1.7	0.64	i	-5	3	2.0	1	1
COc1ccc2c(c1)[nH]c1c(Cl)ncnc12	·	-0.8	·	i	-8	-1	-2.5	49	1
COc1ccc(CCNC(=O)c2cc(S(=O)(=O)N3CCOCC3)cn2C)cc1OC	1.1	-0.1	0.69	i	-5	1	-1.1	-19	5
Cc1cccc(OCCC(=O)Nc2nnc(C)s2)c1	4.4	3.8	0.71	i	-4	-6	4.3	-3	-4
O=C(Cn1nnc2ccccc2c1=O)Nc1ccc(S(=O)(=O)N2CCOCC2)cc1	-3.2	3.8	0.65	i	-11	-2	5.7	0	-3
Cc1ccc(-c2cc(-c3cccs3)[nH]n2)c(O)c1	-2.6	0.7	0.72	·	·	·	·	15	1
O=C(Cc1ccc(NC(=O)C2CCCN(C(=O)C3CCCCC3)C2)cc1)Nc1cccc(C(=O)N2CCCCC2)c1 (stereo unspecified)	-1.7	2.8	0.71	i	-7	6	-0.6	·	-9
CC(C)(C)NC(=O)N1CCN(S(=O)(=O)c2ccc3c(c2)CCC3)CC1	0.7	1.2	0.71	i	0	-2	1.1	0	-7
Cc1ccc(S(=O)(=O)Nc2ccc(C(=O)Nc3cc(C)on3)cc2)cc1	-0.3	-3.2	0.66	·	·	·	·	55	-2
CC(C)N(C(=O)[C@H]1C[C@H](CC(=O)NC(C)(C)C)C(=O)N2CCc3c([nH]c4cc(-c5ccco5)ccc34)[C@]12C)C(C)C	-11	1.5	0.72	i	-1	2	1.3	·	1
CCOC(=O)C1(CCCc2ccccc2)CCN(S(=O)(=O)N(C)C)CC1	5.7	1.9	0.68	i	-14	-18	-6.8	·	2
Cc1ccc(NC(=S)N(CCCN2CCOCC2)Cc2cccnc2)cc1C	1.1	-1.1	0.68	i	3	-23	-6.8	0	-6
O=C(CC1(O)C(=O)Nc2ccccc21)c1ccc2c(c1)OCO2 (stereo unspecified)	2.4	0.6	0.66	·	·	·	·	-12	11
COc1ccc(N2CCN(C(=O)c3cccnc3SCc3cccc(Br)c3)CC2)cc1	1.1	3.6	0.69	i	-15	-18	1.2	18	0
CCCCCCCCC1=NCCc2c1[nH]c1ccccc21	-40	9.8	0.62	i	-58	-84	-18	-47	11
Cc1cccc(S(=O)(=O)N2CCN(Cc3ccc4c(c3)OCO4)CC2)c1	6.5	0.8	0.64	i	0	-16	1.3	2	-2
CC(C)(C)NS(=O)(=O)c1ccc(CCC(=O)NCc2ccccn2)cc1	-0.7	0.3	0.72	i	10	10	1.0	-3	-4
O=C1c2ccccc2C(=O)N1CCCCSc1nnc2ccccn12	-1.8	1.8	0.72	·	·	·	·	-14	-3
Cc1ccc(CN2C(=O)c3ccccc3NC2c2ccccn2)cc1 (stereo unspecified)	-222	4.6	0.65	i	-18	-13	-4.0	4	-5
N#Cc1c(SCC(N)=O)nsc1SCc1ccc(Cl)cc1	4.0	1.2	0.68	·	·	·	·	-5	4

Structures from the list above with a cyano group (2):
SMILES	UCH37 inh	HNF4A DNA FP	Ecoli growth	FGF22 binding	Ecoli rRNA inh	Ecoli rRNA inh OD600	Ecoli rRNA inh RFP	ALR inh	B2AR ag
N#Cc1c(SCC(=O)Nc2cccc(C(F)(F)F)c2)sc2c(O)cc(=O)[nH]c12	8.9	-8.8	0.69	·	1	0	1.5	99*	-2
N#Cc1c(SCC(N)=O)nsc1SCc1ccc(Cl)cc1	4.0	1.2	0.68	·	·	·	·	-5	4

New compounds follow
SMILES	UCH37 inh	HNF4A DNA FP	Ecoli growth	FGF22 binding	Ecoli rRNA inh	Ecoli rRNA inh OD600	Ecoli rRNA inh RFP	ALR inh	B2AR ag
Cc1ccc(S(=O)(=O)N2CCCCC2)cc1NC(=O)C1CC(=O)N(Cc2ccco2)C1 (stereo unspecified)	5.0	-1.0	0.7	i	3	2	2.6	1	0
COc1ccc(CCNC(=O)CSCc2c(F)cccc2Cl)cc1OC	2.5	0.2	0.68	i	-39	-37	-6.9	-3	-4
CC1CCc2sc(C(=O)OCC(=O)NC(C)C)cc2C1 (stereo unspecified)	1.2	-6.3	0.67	i	11	12	-1.0	11	0
Cc1cc(OC(=O)c2ccccc2)c([N+](=O)[O-])c(=O)[nH]1	5.9	0.9	0.69	i	16	15	3.0	·	2
CCNC(=O)NC(=O)C(C)Sc1nc2ccccc2c(=O)n1-c1cccnc1 (stereo unspecified)	2.6	1.8	0.66	i	6	-3	-4.8	-2	4
Cc1ccc(OC(=O)CCc2c(C)nc3ncnn3c2C)cc1	4.9	5.3	0.68	·	·	·	·	6	2
CC(=O)Nc1ccc(S(=O)(=O)N(Cc2cccnc2)Cc2cc3ccccc3[nH]c2=O)cc1	-2.1	-1.9	0.7	i	-6	-6	2.9	-2	74*
Cc1cc(C2=NNC(=NC3CC3)SC2)c(C)n1-c1ccccc1F	4.3	0.4	0.67	i	7	9	8.2	26	-14
Cc1ccc(S(=O)(=O)N(C)C)cc1NC(=O)CCc1ccccc1	2.9	1.7	0.63	i	1	-7	-2.5	2	-6
O=C(NCC(=O)N1CCN(Cc2ccccc2)CC1)c1cccs1	-2.4	-3.5	0.63	i	8	9	-1.6	1	-2
N#C/C(=C\Nc1ccc(Cl)cc1)S(=O)(=O)c1ccccn1	3.1	-2.5	0.67	i	-13	-12	0.0	-4	-3
CN(Cc1c(F)cccc1Cl)C(=O)CNC(=O)c1sc2ccccc2c1Cl	2.7	0.2	0.75	i	4	14	-1.2	12	-9

Marked active in ALR inh, of those listed so far:
SMILES | UCH37 inh | HNF4A DNA FP | FGF22 binding | Ecoli rRNA inh | Ecoli rRNA inh OD600 | Ecoli rRNA inh RFP | ALR inh | B2AR ag
COc1ccc(NC2CCCN(C(=O)CN3CCOC3=O)C2)cc1OC (stereo unspecified) | -0.1 | -0.1 | i | 11 | 13 | 2.9 | 100* | 2
N#Cc1c(SCC(=O)Nc2cccc(C(F)(F)F)c2)sc2c(O)cc(=O)[nH]c12 | 8.9 | -8.8 | · | 1 | 0 | 1.5 | 99* | -2

(continued)
SMILES	UCH37 inh	HNF4A DNA FP	Ecoli growth	FGF22 binding	Ecoli rRNA inh	Ecoli rRNA inh OD600	Ecoli rRNA inh RFP	ALR inh	B2AR ag
COc1cccc2c(C)c(C(=O)O)[nH]c12	-37	-3.3	0.68	·	·	·	·	-23	1
O=C(O)c1ccc(S(=O)(=O)N2CCCC2)cc1	1.8	-2.2	0.66	i	11	4	-0.7	4	-40
CC(C)N=C(NC#N)SCc1ccc(Br)cc1	1.8	-2.6	0.72	·	·	·	·	0	1
CC1(C)SC[C@H](C(=O)Nc2cccc(Cl)c2)N1C=O	2.1	3.8	0.63	i	0	-11	-0.6	0	-10
C=CCOc1ccc(/C=N/NC(=O)c2cc3c(OC)cc(OC)cc3[nH]2)cc1	·	-2.2	·	i	-16	-9	1.0	-21	16
Cc1ccc(S(=O)(=O)N(C)c2ccc(OCC(=O)Nc3ccc(C(=O)N(C)C)cc3)cc2)cc1C	4.3	2.0	0.69	i	-17	-20	-0.6	-10	19
COc1cc(C=O)c(Br)cc1OCC(=O)NCc1ccccc1	2.7	-2.6	0.68	i	14	3	-1.6	-3	-2
COCC1CCCCC1OS(N)(=O)=O (stereo unspecified)	2.5	1.3	0.67	i	4	16	20	0	-11
CCP(=O)(CC)C(C)(C)CP(=O)(c1ccccc1)c1ccccc1	-2.4	2.0	0.71	i	5	3	-9.1	-4	15
CCN(CC)c1ccc(NC(=O)c2nc3nc(C)cc(C(F)F)n3n2)cc1	7.3	3.1	0.72	i	-8	-9	-9.1	99*	3
COC(=O)c1ccc(OC)c(-c2c(OC)cc(OC)cc2OC)c1	2.5	0.2	0.63	i	1	4	-0.6	-3	-4
O=C(CN1C(=O)c2ccccc2C1=O)NCCc1c[nH]c2ccc(Cl)cc12	0.2	1.3	0.72	i	-5	-5	-1.2	1	-2

Among those listed so far, these contain a COOH group.
SMILES	UCH37 inh	HNF4A DNA FP	Ecoli growth	FGF22 binding	Ecoli rRNA inh	Ecoli rRNA inh OD600	Ecoli rRNA inh RFP	ALR inh	B2AR ag
Cc1cc(C)c(NC(=O)c2cc(C(=O)O)ccc2C(=O)O)c([N+](=O)[O-])c1	47*	6.3	·	i	8	5	-1.4	·	2
COc1cccc2c(C)c(C(=O)O)[nH]c12	-37	-3.3	0.68	·	·	·	·	-23	1
O=C(O)c1ccc(S(=O)(=O)N2CCCC2)cc1	1.8	-2.2	0.66	i	11	4	-0.7	4	-40

Continuation:
SMILES	UCH37 inh	HNF4A DNA FP	Ecoli growth	FGF22 binding	Ecoli rRNA inh	Ecoli rRNA inh OD600	Ecoli rRNA inh RFP	ALR inh	B2AR ag
COc1ccc(OC)c(C(C)NC(C)=O)c1 (stereo unspecified)	0.9	-1.4	0.61	·	·	·	·	0	2
CCCNC(=O)C(=O)N/N=C/c1cccs1	·	-2.3	·	i	8	12	-0.6	-3	1
CC(=O)N1N=C(c2cccc([N+](=O)[O-])c2)OC1c1ccc(Br)cc1 (stereo unspecified)	9.6	2.3	0.65	i	-3	-8	5.8	15	-3
CCc1nc2c(OCC(=O)c3ccc(Cl)cc3Cl)cccn2c1N(C)C(=O)c1ccncc1	·	-2.7	·	i	10	19	3.8	·	·

A portion of the library (hit frequency here may not be typical).
